NPYLR7 agonist: mosquito NPYLR7 agonism; HEK293T NPYLR7/Galpha15, GCaMP6s calcium fluorescence; activation, % at 10 µM; 270,000 tested, 0.15% active; AID 1259423; in the data active means activation above about 40%;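 further: 0% = vehicle and 100% = reference agonist at the receptor; some compounds past the cut are filed as inactive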
NPYLR7 agonist max-min: second read-out of NPYLR7 agonist, no call of its own (marks repeat the call); activation, %; measured here: Max-Min RFU normalised activation; some inactives read as strong as hits;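 span of the calcium signal over five minutes; 0% = vehicle and 100% = native peptide agonist; compound fluorescence can raise it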
* hit, by the source's call; & = joins results of further samples.

SMILES | NPYLR7 agonist | NPYLR7 agonist max-min
CCCCC1(CCCC)C(=O)NC(=Nc2ccc(C)cc2)NC1=O | -1 | -1
N#Cc1ccc(NC(=O)NCC(O)c2ccccc2F)cc1Cl (configuration not stated) | -6 | -6
C1CCC(C2CCCCC2NC2CC2)CC1 (configuration not stated) | -5 | -7
CN(C)Cc1c[nH]c2ccccc12 | 2&-1 | 0&-6
CC(Cc1cnccn1)NCc1nc(Cc2ccccc2F)no1 (configuration not stated) | 6 | 3
CCCc1[nH]ncc1C(=O)N1C[C@@H](c2ccccc2)[C@@H]2[C@H]1C1CCN2CC1 | -5 | -7
O=C1NC(=O)C(CC(=O)N2CCN(CCOC(c3ccccc3)c3ccccc3)CC2)N1 (configuration not stated) | -1 | 9
CC(C)=Cc1nc(-c2c(C)ncc3c2CCNC3)no1 | -3 | -4
CC(C)Cc1nc(-c2cccc(CN3CCN(C(=O)COc4cccnc4)CC3)c2)no1 | 6 | 20
CN1CC[C@@]2(C)c3cc(O)ccc3N(C)[C@H]12 | 10 | -4
NC(=O)c1ccc(CN2CC=C(c3ccc(O)cc3)CC2)cc1 | 9 | 9
COC(=O)[C@@H]1[C@H]2c3ccccc3O[C@]1(C)NC(=O)N2C(C)=O | 1 | 8
CCOc1cccc(C=C(C#N)C#N)c1OC | 0 | 0
CCC(=O)Nc1ccc(Cl)c(Cl)c1 | -7 | -16
Cc1cc(C)c(CNc2cc(-c3cccnc3)nc3ncnn23)c(=O)[nH]1 | 2 | -1
O=C1NC2(CCNCC2)Nc2ccc(Cl)c(Cl)c21 | 9 | 6
Cc1nc(C2(NCC(=O)N3CCc4ccccc4C3)CCCCC2)no1 | -25 | -27
c1ccc2sc(C3(N4CCCCC4)CCCCC3)cc2c1 | -11&7 | -16&-1
COC(=O)CC(=O)N1CCN(CCOC(c2ccccc2)c2ccccc2)CC1 | 20 | 12
CC1CN=C(Nc2ccc(F)cc2)S1 (configuration not stated) | 19 | 17
CC(C)c1nnsc1CN1CCC2(CC1)C(=O)Nc1ccccc12 | -2 | -3
COC[C@H]1OC(=O)c2coc3c2[C@@]1(C)C1=C(C3=O)C2CCC(=O)[C@@]2(C)C[C@H]1OC(C)=O (some centres not stated) | 5 | -36
N#CC1C(=N)Oc2c(c(=O)oc3ccccc23)C1c1ccco1 (configuration not stated) | 4 | -1
COCCNC(=O)CN1C(=O)CSC(c2ccccc2Cl)c2c(C(C)(C)C)nn(-c3cccc(F)c3)c21 (configuration not stated) | 17 | 20
C#CCN(C)S(=O)(=O)c1ccc(Cn2nc(C(=O)NCCC)c3ccccc32)cc1 | 12 | 17

Exported with values under each structure: entries from further up
Every second line gives: NPYLR7 agonist | NPYLR7 agonist max-min
COC(=O)[C@@H]1[C@H]2c3ccccc3O[C@]1(C)NC(=O)N2C(C)=O
  1 | 8
c1ccc2sc(C3(N4CCCCC4)CCCCC3)cc2c1
  -11&7 | -16&-1
CCOc1cccc(C=C(C#N)C#N)c1OC
  0 | 0

(continued)
SMILES | NPYLR7 agonist | NPYLR7 agonist max-min
Cc1ccccc1N1C2=[N+](CCCS2)CC1(O)c1ccc(F)cc1 (configuration not stated) | -5 | -4
Cc1cccc(C)c1NC(=O)CN1CCCC1=O | 0 | -24
CCOc1ccc(C2c3c(c4ccccc4oc3=O)OC(=N)C2C#N)cc1OCC (configuration not stated) | -11 | -16
CC(C)Cc1nc(-c2ccc(CN3CCN(C(=O)Cc4ccsc4)CC3)cc2)no1 | 5 | 9
Cc1ccc(Cn2cccc(C(=O)Nc3nnc(C)s3)c2=O)cc1 | 16 | 7
CC(=O)N1CCN(C(=O)CN2C(=O)CSC(c3cccc(Cl)c3)c3c(C(C)(C)C)nn(C)c32)CC1 (configuration not stated) | 14 | 9
Cc1cc(S(=O)(=O)N2CCN(CCOC(c3ccc(F)cc3)c3ccc(F)cc3)CC2)c(C)cc1Cl | 5 | 2
Cc1ccc(-n2nnnc2CN2CCN(C(=O)COc3ccccc3F)CC2)cc1 | 0 | 0
Cc1cnc(CNC(=O)c2nn(Cc3ccc(S(=O)(=O)N(C)c4ccccc4)cc3)c3ccccc23)cn1 | 7 | 8
C[C@@H]([C@H](O)c1ccccc1)N(C)C | -2 | -3
CC[C@@H](C(N)=O)N1CCCC1=O | -11&-9 | 3&-14
CCC12CN3CCN(CC(C3)C1NC(C)=O)C2 (configuration not stated) | -10 | -11
CC(C)c1ccc(NP(=O)(OCC(F)(F)F)OCC(F)(F)F)cc1 | 7 | 1
N#CC1(c2ccccc2)CCN(C(=O)C2CC=CCC2C(=O)NCc2ccccn2)CC1 (configuration not stated) | -4 | -12
Cc1cc(C)n2ncc(CN3CCN4CCN(C)C(=O)C4C3)c2n1 (configuration not stated) | 0 | -3
CCOP(=O)(CC#N)OCC | 2 | 1
O=C(CCl)c1ccc(F)cc1F | 5 | 0
CC1(C)CC2(CCCN(CCC#N)C2)CCS1 (configuration not stated) | 0 | -2
CCOc1ccccc1-n1c(C(C)NCCOC)nc2ccccc2c1=O (configuration not stated) | 8 | 8
Clc1ccc(C[N+]23CCN(CC2)CC3)c(Cl)c1 | -2 | -3
O=C1CC2OCC=C3CN4CC[C@]56c7ccccc7N1C5[C@H]2[C@H]3CC46 (some centres not stated) | -8 | -12
O=[N+]([O-])c1cc(Br)c(O)c(Br)c1 | 6 | 3
Cc1nc(-c2ccc(-c3ccc(C(=O)N4CCc5cc6c(cc54)C4(CCN(C)CC4)CO6)cc3)c(C)c2)no1 | 4 | -4
NCCc1ccc(Oc2ccc(F)cc2)cc1 | 7&-16 | 5&-19
O=C(CCN1C(=O)c2cccc([N+](=O)[O-])c2C1=O)Nc1ccc(Cl)cc1C(=O)c1ccccc1 | -8 | -13
O=C(NCc1cccc(F)c1)C(C1CCCC1)N1CCN(C(=O)COc2ccc(Cl)cc2)CC1 (configuration not stated) | -3 | 4
CCC(O)Cn1cc(C2=CCN(Cc3cc(=O)[nH]c(C)n3)CC2)cn1 (configuration not stated) | 14 | 9
COCCN(Cc1sccc1C)C(=O)c1c(C)n(C)c2ccc(OC)cc12 | 3 | -1
COc1ccccc1CC(C)NCc1ccc2nonc2c1 (configuration not stated) | -5 | -5
CC[C@]12C=CCN3CC[C@@]4(c5ccc(OC)cc5N(C)C4[C@@](O)(C(=O)OC)[C@@H]1OC(C)=O)[C@@H]32 (some centres not stated) | 17 | 10
COc1ccc(CC(=O)N2CCN(CC(OCc3ccc(C#N)cc3)c3cccc(N4CCCC4)c3)CC2)cc1OC (configuration not stated) | 3 | -1
Fc1ccc(F)c(C2NCCc3[nH]cnc32)c1 (configuration not stated) | 3 | 0
Fc1cnccc1CN1CCC2(CCNCC2)C1 | 6 | 4
CCCCc1ccc(NC2=NC(C)(C)CS2)cc1 | -1 | -1
CNC(C)C(O)c1ccccc1 (configuration not stated) | -7 | -13
COc1cccc(CC(C)NC2CCN(S(C)(=O)=O)CC2)c1 (configuration not stated) | 5 | 0
CN1C[C@@H]2CC[C@H](CC1=O)N2Cc1nccn1C | 9 | 2
c1cc2c(c(-c3cccc4[nH]ccc34)c1)CCNC2 | 6 | 3
NCCc1n[nH]c(=O)n1C1CCCCC1 | 4 | 3
O=C(Cc1ccc(F)cc1)N1CCN(Cc2nc3ccccc3n2Cc2ccccc2)CC1 | 1 | -1
CCOC(=O)[C@@H]1[C@@H](c2ccccc2)CN2CCN(C(=O)C3CC3)C[C@H]12 | -4 | -4
CN(C)CP(=O)(O)CN(C)C | 3 | -8
Cc1ccc(C2N(c3ccccn3)C(=O)C3CCCN32)o1 (configuration not stated) | 10 | 7
CCC/C=C/c1ccc(CN2CCN(C)CC2)cn1 | 9 | 5
N#Cc1ccc(NC(=O)Cc2cccc(C(F)(F)F)c2)cc1Cl | -1 | -2
C[C@]12CCC3[C@@H](CC[C@@H]4C[C@H](O)CC[C@]34C)[C@@H]1CCC2=O (some centres not stated) | -4 | -10
Cc1ccc(-c2nc3ccc(C)cn3c2CC(=O)N(C)C)cc1 | -1&-11 | -15&-19
C[C@@H]1NCCc2cc(O)c(O)cc21 | -3 | -8
CCCN1CCC[C@@H](c2cccc(O)c2)C1 | 3 | -48
Cc1cc(NC(=O)c2nn(Cc3ccc(S(=O)(=O)N(C)c4ccccc4)cc3)c3ccccc23)no1 | -3 | 14

By substructure, those above with a thiophene ring, fused or not.
SMILES | NPYLR7 agonist | NPYLR7 agonist max-min
c1ccc2sc(C3(N4CCCCC4)CCCCC3)cc2c1 | -11&7 | -16&-1
CC(C)Cc1nc(-c2ccc(CN3CCN(C(=O)Cc4ccsc4)CC3)cc2)no1 | 5 | 9
COCCN(Cc1sccc1C)C(=O)c1c(C)n(C)c2ccc(OC)cc12 | 3 | -1

Continuation:
SMILES | NPYLR7 agonist | NPYLR7 agonist max-min
N#Cc1ccc(NC(=O)CSCC2CCCO2)cc1C(F)(F)F (configuration not stated) | -1 | 6
NC(=O)[C@H]1CN2CCN(c3ccccn3)C[C@@H]2[C@@H]1c1ccccc1 | 2 | 12
Cc1ccc(F)cc1C(=O)N1C[C@H](c2ccccc2)[C@@H]2[C@H]1C1CCN2CC1 | 8 | 6
Cc1cccc(Cn2cccc(C(=O)Nc3ccc(F)c([N+](=O)[O-])c3)c2=O)c1 | 7 | 0
COc1ccc(/C=C2\C(=O)NC(=O)N(C(C)(C)C)C2=O)c(OC)c1 | -3 | -7
C1CCCC(NC2CCCC2)CC1 | 9 | 12
CC(=O)C1(c2ccccc2)CCN(Cc2cccc(C(=O)NCc3ccc(F)cc3)c2)CC1 | 7 | 7
CC1=CC(=O)c2c(O)cccc2C1=O | -8 | -18
N#Cc1ccccc1NC(=O)c1cccn(Cc2ccccc2F)c1=O | 15 | 6
COc1ccc(-c2ccccc2N2CCNCC2)c2ccc(C)nc12 | 10 | 0
CCCN(CCC)C1Cc2cc(OC)c(OC)cc2C1 | -9&-1 | -12&21
O=C1c2ccccc2CC1(Br)Br | 1 | -3
COc1cccc(S(=O)(=O)N2CCN(CCOC(c3ccccc3)c3ccccc3)CC2)c1 | 23 | 21
CCC(N)Cc1ccccc1C(F)(F)F (configuration not stated) | 9 | 10
CC12CN3CC(C)(CN(C1)C31CCCCC1)C2O (configuration not stated) | 0 | 1
CN(C(=O)Cc1ccccc1)C(CN1CCCC1)c1ccccc1 (configuration not stated) | -14 | -16
CC(Cc1ccccc1Sc1ccccc1O)N(C)C (configuration not stated) | 2 | 0
Cc1cc(C=C2C(=O)N(C)C(=O)N(C)C2=O)c(C)n1-c1ccccc1 | -10 | -19
COc1ccc2c(c1)/C(=C/c1cnc[nH]1)C(=O)N2 | 3 | -38
CN(C)c1ccc(/C=C/[N+](=O)[O-])cc1 | 5 | 2
COc1ccc(F)cc1CN1CCC2(CC1)C(=O)Nc1ccccc12 | -19 | -23
COCCNC(=O)CN1C(=O)CSC(c2ccccc2F)c2c(C(C)(C)C)nn(-c3ccccc3Cl)c21 (configuration not stated) | 14 | 14
O=C(O)CN1C(=O)CSC(c2cccs2)c2c(-c3ccccc3)nn(-c3ccccc3Cl)c21 (configuration not stated) | -3 | -7
O=C(COc1ccc(F)cc1)N1CCN(Cc2cccc(-c3noc(-c4cccc(C(F)(F)F)c4)n3)c2)CC1 | 4 | 5
Cc1ccc(C)c(OCC(=O)NCCc2cnc[nH]2)c1C | 3 | 2
CC(C)NC(=O)OC[C@H]1C[C@@H]2CCN1C[C@@H]2c1cc(-c2cccs2)nn1C | -7 | -13
CC(NC(=O)C1CCN(CCc2c[nH]c3ccccc23)CC1)c1cccc2ccccc12 (configuration not stated) | 14 | 2
CC(c1nc2ccccc2s1)N1CCNCC1 (configuration not stated) | 7 | 5
Clc1ccc(C2NCc3ccccc3-n3cccc32)cc1 (configuration not stated) | -2 | -3
N#CC1C(=N)Oc2c(c(=O)oc3ccccc23)C1c1ccccc1Cl (configuration not stated) | 3 | -3
CN1CC[C@@]2(C1)[C@@H](O)CN(C)S2(=O)=O | 7 | 20
CCCCn1c(C)c(C(=O)OCC)c2cc(OC(=O)c3cccc([N+](=O)[O-])c3)c3ccccc3c21 | -6 | -1
Cc1ccsc1CN(CCN(C)C)C(=O)Cc1c(C)[nH]c2ccccc12 | 2 | -3
COc1ccc(F)c(C2NCCc3[nH]cnc32)c1Cl (configuration not stated) | 6 | 3
COC(=O)CCC(=O)N1CC[C@@H]2CC[C@H](C1)N2C | 1 | 2
O=C(c1[nH]ncc1Cl)N1C[C@H](c2ccccc2)[C@@H]2[C@H]1C1CCN2CC1 | -3 | -4
Oc1cc2c(cc1O)[C@H]1c3ccccc3CN[C@@H]1CC2 | 2 | 0
COCCOC(=O)C1C(=N)OC(C)=C(C(=O)OC)C12C(=O)Nc1ccc(Br)cc12 (configuration not stated) | -5 | -9
O=[N+]([O-])c1ccccc1CN1CCN(c2ccccc2F)CC1 | 7 | 7
O=c1cccc2n1CC1CC2CN2CCCC[C@@H]12 (some centres not stated) | -3 | -11
CCCOc1ccc(CN)cn1 | 16 | 11
CCOC(=O)C1CC1CN1CCN(CCOC(c2ccccc2)c2ccc(F)c(F)c2)CC1 (configuration not stated) | -2 | 4
COCCCN1C(=O)NC(=O)C2(Cc3ccccc3N3CCCCC32)C1=O (configuration not stated) | 3 | 34
Cc1cccc2[nH]cc(C3=CCN(C(C)C(=O)NC4CC4)CC3)c12 (configuration not stated) | 19 | 19
Cc1ccc(N=CN(C)C=Nc2ccc(C)cc2C)c(C)c1 | -19 | -23
Fc1ccc(C2NCc3ccccc3-n3cccc32)cc1 (configuration not stated) | 2 | 0
CCc1cccc2sc(N3CCNCC3)nc12 | -1 | -3
COc1ccc(NP(=O)(Nc2ccc(OC)cc2)Oc2ccccc2)cc1 | 1 | 0
C/C(=C\c1csc(C)n1)[C@@H]1C[C@@H]2O[C@]2(C)CCC[C@H](C)[C@H](O)[C@@H](C)C(=O)C(C)(C)[C@@H](O)CC(=O)O1 | -12 | -15
CCCn1ncc(C(=O)NC(C)C(=O)Nc2ccc(F)cc2C)c1C (configuration not stated) | 5 | 2

Bioassay records as filed in PubChem BioAssay.

Only part of the results is shown; the hit share may differ from the screen's.
